RVFV N-RNA FP = blocks Rift Valley Fever Virus nucleoprotein binding to RNA | P21700 | RVFV N-RNA binding, fluorescence polarization; hits give low values | % bound, % (test concentration not listed) | actives 0.1% (n = 20,000) | AID 651828;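 active = between 0 and 58% in either replicate with normal brightness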;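 also: 100 nL library stock added to about 12 µL; 100% = protein and probe without compound and 0% = probe alone; numbers are from one replicate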
Target sequence (P21700 whole entry, looked up): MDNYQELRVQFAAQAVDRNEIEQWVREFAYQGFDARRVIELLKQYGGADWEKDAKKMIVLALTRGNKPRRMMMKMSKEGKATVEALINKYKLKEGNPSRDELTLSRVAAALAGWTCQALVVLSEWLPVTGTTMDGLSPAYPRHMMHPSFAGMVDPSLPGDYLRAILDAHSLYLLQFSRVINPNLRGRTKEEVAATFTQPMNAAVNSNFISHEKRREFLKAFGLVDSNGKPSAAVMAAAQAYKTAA
An asterisk follows results filed as active; & = joins results of further samples. The list is partial. The share of hits here may be higher or lower than overall.

SMILES | RVFV N-RNA FP
CC(C)N(C(=O)Cn1cc(S(=O)(=O)CC(=O)N(C)c2ccccc2)c2ccccc21)C(C)C | 100
COc1ccc(C(=O)CC2=NC(C)(C)CO2)cc1 | 94
NC(=O)CSc1nnc2ccc3ccccc3n12 | 93
O=C(CSc1ncn(-c2ccccc2)n1)NCCc1ccccc1 | 105
CS(=O)(=O)N(CC(=O)O)Cc1ccc(Cl)c(Cl)c1 | 95
CC(C)(C)c1ccc(C(=O)N2CCCCCC2)cc1 | 101
CCN(CC)C(=O)C1CCCN(Cc2ccccc2)C1 (configuration not stated) | 104
Cc1ncc(CO)c(/C=N/N=C/c2c(O)ccc3ccccc23)c1O | 98
O=S(=O)(NCCNC/C=C/c1ccc(Br)cc1)c1cccc2cnccc12 | 111
COc1cc(-c2nnc(NC(=O)CCS(=O)(=O)c3ccc(C)cc3)o2)cc(OC)c1OC | 89
CCOC(=O)C1CCN(CC(=O)Nc2cccc3cccnc23)CC1 | 96
CN(CC(=O)N1CCN(c2ccccn2)CC1)S(=O)(=O)c1ccccc1 | 94
CCC1(c2ccccc2)NC(=O)N(C)C1=O (configuration not stated) | 96
Cc1cccc(-c2nc(CCNC(=O)c3cccs3)cs2)c1 | 98
CC(C)(C)C(=O)/C(C#N)=C/c1cccs1 | 98
Clc1nc(Cl)nc(NCc2ccccc2)n1 | 96
CN(C)C(=O)O/N=C(\N)c1ccc(OCc2ccccc2F)cc1 | 109
O=c1c(-c2ccc(I)cc2)[n+]([O-])c2ccccc2n1O | 92
CCNc1nc2c(ncn2[C@H]2C[C@H](O)[C@@H](CO)O2)c(=O)[nH]1 | 95
Cn1c(CCNC(=O)c2cccs2)nnc1SCC(=O)N1CCN(c2ccccc2)CC1 | 92
Cn1cnc(S(=O)(=O)Nc2ccc3c(c2)C(=O)OC3)c1 | 92
O=C(NCC(c1cccs1)S(=O)(=O)c1cccs1)Nc1ccc(Cl)cc1 (configuration not stated) | 97
Cc1onc(-c2ccccc2)c1C(=O)N(Cc1ccccn1)Cc1ccccn1 | 100
COC(=O)c1ccc(S(=O)(=O)N2CCCN(C(=O)c3cccs3)CC2)n1C | 93
CN1C[C@H](C(=O)N[C@]2(C)O[C@@]3(O)[C@@H]4CCCN4C(=O)[C@H](Cc4ccccc4)N3C2=O)C[C@@H]2c3cccc4[nH]cc(c34)C[C@H]21 | 97
COc1ccc(NC(=O)CSc2c(C)nn(-c3nnc(C)c(=O)[nH]3)c2C)cc1 | 102
CCN(CC)C(=O)Cn1cc(S(=O)(=O)CC#N)c2ccccc21 | 95
CC(SCC(=O)Nc1ccccc1)c1nc2ccccc2c(=O)[nH]1 (configuration not stated) | 95
O=C(Nc1cccc(Nc2cc(Nc3cccc(C(F)(F)F)c3)ncn2)c1)C1CC1 | 100
CCOc1ccc2c(=O)c(-c3ccccc3)c(C)oc2c1 | 88
C#CCN1C(=O)S/C(=C/c2ccc(N3CCCCC3)cc2C)C1=O | 111
CCOC(=O)c1cc(=O)c(-c2ccccc2)n[nH]1 | 101
Cc1c(Cl)ccc2c(C(=O)Nc3cc(C(C)(C)C)on3)cc(-c3ccccn3)nc12 | 97
Cc1ccccc1-c1nsc(SCC(=O)NCc2ccco2)n1 | 97
COc1ccccc1N1CCN(CCCNc2c(C)c(=O)n(C)c(=O)n2C)CC1 | 91
CCCCCn1c(N2CCOCC2)nc2c1c(=O)n(CC(N)=O)c(=O)n2C | 100

Some of the entries so far, with tabs:
compound	RVFV N-RNA FP
CS(=O)(=O)N(CC(=O)O)Cc1ccc(Cl)c(Cl)c1	95
CCC1(c2ccccc2)NC(=O)N(C)C1=O (configuration not stated)	96
CN1C[C@H](C(=O)N[C@]2(C)O[C@@]3(O)[C@@H]4CCCN4C(=O)[C@H](Cc4ccccc4)N3C2=O)C[C@@H]2c3cccc4[nH]cc(c34)C[C@H]21	97
CCNc1nc2c(ncn2[C@H]2C[C@H](O)[C@@H](CO)O2)c(=O)[nH]1	95

Additional entries
SMILES | RVFV N-RNA FP
O=C(NCc1ccc2c(c1)OCO2)C(=S)N1CCCCC1 | 95
CC1=NN(c2ccc(C)c(C)c2)C(=O)/C1=C/c1ccc(N2CCOCC2)cc1 | 87
COc1ccc(S(=O)(=O)Nc2ccc(C(=O)Nc3nccs3)cc2)cc1 | 97
Cc1cc(Cl)ccc1NNC(=O)c1snnc1C | 109
CCOC(=O)N1CCN(S(=O)(=O)c2cc(Cl)c(C)cc2OCC)CC1 | 91
Cc1ccc(S(=O)(=O)c2nc(-c3ccccc3)oc2NCCN2CCOCC2)cc1 | 92
Cc1cc(Nc2nc(-c3ccccc3)nc3ccccc23)n[nH]1 | 83
O=C(NC(=S)NCc1ccco1)c1ccc(-c2ccccc2)cc1 | 100
Cc1noc(C)c1S(=O)(=O)Nc1ccc(N2CCN(C(=O)OC(C)(C)C)CC2)nc1 | 94
Cc1ccc(C)c(-n2ccn(CC#N)c(=O)c2=O)c1 | 104
c1ccc2sc(Nc3nc4cc5c(cc4s3)OCO5)nc2c1 | 89
O=C1Cc2cccc3cccc1c23 | 95
COc1ccc(C)cc1S(=O)(=O)NC(C)(C)C | 88
CN(C)CCN(C)Cc1cccc(C(F)(F)F)c1 | 90
COc1ccc(CN2CCC(=O)NC2=O)cc1C | 108
NC(=O)NCc1ccc2[nH]c3c(c2c1)CCCC3 | 95
CC1OCC/C1=N/OC(=O)Nc1c(Cl)cccc1Cl (configuration not stated) | 92
O=C(CCN1C(=O)/C(=C\c2ccco2)SC1=S)Nc1ccccc1 | 96
CCCN1CCC[C@@H]2Cc3[nH]ncc3C[C@H]21 | 95&99&101
O=C(NCCCO)c1cc2ccccc2oc1=O | 96
CCOC(=O)C(C#N)=C1C=CN(c2ccccc2)C=C1 | 100
O=C(ON=C1CCC2(CC1)OCCO2)c1cccc(C(F)(F)F)c1 | 99
CN(C)S(=O)(=O)c1ccc(-c2csc(=Nc3ccccc3)n2CCN2CCOCC2)cc1 | 99
CCOC(=O)C(C)Oc1cccc2c(=O)n(CC(=O)Nc3ccc4c(c3)OCCO4)ccc12 (configuration not stated) | 93&95

Another view of part of the listing above.
> O=C(NCC(c1cccs1)S(=O)(=O)c1cccs1)Nc1ccc(Cl)cc1 (configuration not stated)
  RVFV N-RNA FP = 97
> Cn1cnc(S(=O)(=O)Nc2ccc3c(c2)C(=O)OC3)c1
  RVFV N-RNA FP = 92
> CCOc1ccc2c(=O)c(-c3ccccc3)c(C)oc2c1
  RVFV N-RNA FP = 88
> CCOC(=O)C1CCN(CC(=O)Nc2cccc3cccnc23)CC1
  RVFV N-RNA FP = 96

New compounds follow
SMILES | RVFV N-RNA FP
O=C(Cc1ccccc1)N1CCCCCC1 | 87
C[C@H](N)CN1CCc2ccc(Br)cc21 | 72*
CC(O)CNCCOc1ccc2ccccc2c1Cl (configuration not stated) | 92
Cc1ccc(N(CC(=O)N2CCOCC2)S(=O)(=O)c2ccccc2)cc1 | 96
C(=C\c1cccs1)/C1=NN(c2ccccc2)C(c2cccs2)C1 (configuration not stated) | 96
O=C1/C(=C/c2cccs2)CN(Cc2ccccc2)C/C1=C\c1cccs1 | 94
Cc1cc(=O)[nH]c2nnc(SCC(=O)N3CC(C)OC(C)C3)n12 (configuration not stated) | 92
COc1ccccc1N1CCN(C(CNS(=O)(=O)c2c(C)cc(C)cc2C)c2cccnc2)CC1 (configuration not stated) | 98
CC1Cc2ccccc2N1C(=O)CSc1nnc(N)s1 (configuration not stated) | 93
O=C(CC(C(=O)O)n1cccn1)c1ccc(Br)cc1 (configuration not stated) | 98
C=C(C)CN(CC)C1CCC(CC)CC1 (configuration not stated) | 99
O=C(CSc1nnnn1-c1ccccc1)N1N=CCC1c1ccccc1 (configuration not stated) | 103
O=C(C1CC(=O)N(C2CCCCC2)C1)N1CCCc2ccccc21 (configuration not stated) | 97
COc1ccc(S(=O)(=O)NC2CC2)cc1C(=O)N1CCOCC1 | 99
COc1cc(CNC(=O)CCCCCCC(C)C)ccc1O | 92
CCc1ccc2oc(=O)cc(CN(CC)CCO)c2c1 | 95
C/C(=N\NC(=Nc1ccccc1)c1ccccn1)c1ccccn1 | 88
COc1ccc(C(CNC(=O)NC(C)(C)C)N2CCN(C)CC2)cc1 (configuration not stated) | 92
Cc1cc2c([nH]c(=O)c3c(=O)[nH]c(C(F)(F)F)nc32)s1 | 102
CCN(CC)c1ccc(CN2CC=C(c3ccc(F)cc3)CC2)cc1 | 111
COc1ccc(C(CCN)c2ccccc2)cc1 (configuration not stated) | 98
C=CCC(CC=C)(C(=O)O)c1ccccc1 | 98
N#Cc1c(-c2cccs2)oc(-n2cccc2)c1-c1cccs1 | 100
Cc1c(O)c2ccccc2n(C)c1=O | 105
Cc1ccc([N+](=O)[O-])cc1S(=O)(=O)N(C)C | 93
CCOC(=O)COc1cccc2c(=O)n(CC(=O)N3CCCCC3)ccc12 | 91
CCOc1ccc(-c2nc(C#N)c(N3CCCC3)o2)cc1 | 94
CC(Sc1ccccc1)C(=O)NCCc1ccccc1 (configuration not stated) | 92
O=C(NN1CCOCC1)c1ccc(Cl)cc1 | 84
COc1cc(Br)c(CNC(C)(C)CO)cc1OC | 95
O=NN(CCCl)C(=O)NCCCl | 91
CN1CC[C@@H](c2ccc(F)cc2)[C@H](COc2ccc3c(c2)OCO3)C1 | 94
COc1ccccc1CNC(=O)c1ccccc1OC | 95
CCOC(=O)c1nc(C)nc(Sc2n[nH]c(-c3ccccc3)n2)c1C | 98
CN(C)CCCNc1oc(-c2ccccc2Cl)nc1S(=O)(=O)c1ccc(F)cc1 | 93
Cc1c(C(=O)N2CCCCCC2)oc2ccccc12 | 102
O=C(CCNc1ccc(Cc2ccncc2)cc1)c1ccco1 | 97
CCOCCC(=O)N1CCN(C)CC1 | 84
Cn1c(=O)n(C)c2cc(/C=C3\C(=O)NC(=O)N(c4ccc(Cl)cc4)C3=O)ccc21 | 93
Cc1nnsc1-c1onc(C)c1C(=O)O/N=C(\N)c1cc(C(F)(F)F)cc(C(F)(F)F)c1 | 92
C=C(C(=O)O)C(CC(=O)O)C(=O)O (configuration not stated) | 97
CCN(CC)c1ccc(NC(=O)c2ccc(C)cc2)c(N(CC)CC)n1 | 97
COc1ccc(Cl)cc1NC(=O)CN1C(=O)CSC(C)C1=O (configuration not stated) | 100
CCOc1ccc(OCCN2CCN(C)CC2)cc1 | 101
O[C@@H](c1cc(C(F)(F)F)nc2c(C(F)(F)F)cccc12)[C@H]1CCCCN1 | 93
Cc1ccc(OCCOCCN2CCCCC2)c(C)c1 | 104
CCOc1ccccc1NC(=O)c1cccc(NC(=O)c2ccco2)c1 | 94
CSc1ccccc1NC(=O)Cc1ccccc1 | 93
Cc1csc(NN=C2CCCCC2)n1 | 96
NCCc1ccc(S(=O)(=O)F)cc1 | 93
O=C(NCCc1ccccc1)C1CC(=O)N2CCN=C2S1 (configuration not stated) | 98
CCC(=O)Nc1cc(C(C)C)c(O)cc1C | 86
CC1CN(Cc2ccccc2Cl)CC(C)O1 (configuration not stated) | 102
COC(=O)C1=C(C)N(CC2CCCO2)C(=O)/C1=C\c1ccccc1 (configuration not stated) | 88
CN(C)C1C(=O)C(C(N)=O)=C(O)C2(O)C(=O)C3=C(O)c4c(O)ccc(Cl)c4C(O)C3CC12 (configuration not stated) | 100
Cc1cccc2nc3c(nc12)C(=O)c1ccccc1C3=O | 90
CCOc1ccc(Cl)cc1S(=O)(=O)NC | 103
Cc1cc(Cl)c(S(N)(=O)=O)cc1OCC(N)=O | 101
Cc1cc(S(=O)(=O)NC(C)C)ccc1OCC(=O)NCc1ccc2c(c1)OCO2 | 97
CCN(CC)P1(=S)OC(C)(C)CC1(C)O (configuration not stated) | 89

(listing goes on)
SMILES | RVFV N-RNA FP
Cc1c(C(=O)N(C)Cc2ccccc2)sc2nc(-c3ccccc3)cn12 | 99
CCn1c(=O)cc(N2CCOCC2)[nH]c1=O | 97
Cn1nc(C(C)(C)C)cc1C(=O)NNc1c(Cl)cncc1Cl | 94
N#CC(C#N)=CNc1ccc(Oc2cccnc2)nc1 | 91
N#CCn1nnc(-c2ccc3c(c2)OCO3)n1 | 110
O=C(O)c1ccccc1Nc1cccc(OCc2ccc3ccccc3n2)c1 | 98
CCC(CC)C(=O)N(c1ccc(OC)cc1OC)C1C=CS(=O)(=O)C1 (configuration not stated) | 101
CSc1nnc(C)c(=O)n1N | 96
CCNC(=O)C(C)Sc1ccccc1 (configuration not stated) | 93
CCCCc1ccc(NC(=O)NCCN2CCNC2=O)cc1 | 97
O=C1CN(c2ccccc2)C(=O)N1c1ccccc1 | 95
CC(Cc1ccccc1)NC(=O)c1ccccc1 (configuration not stated) | 100
CN(CCCOc1ccc(Cc2ccccc2)cc1)CCC(=O)O | 98
Cc1nc(C#N)c(N/N=C/C=C/c2ccccc2)o1 | 100
CN1C(=O)c2ccc(N3CCCC3)cc2C1=O | 105
COc1ccc(CCNC(=O)NC(C)(C)C)cc1OC | 90
O=C(N/N=C/c1ccccc1Cl)C1CC1 | 95
O=c1[nH]c(=S)[nH]nc1-c1ccc(O)cc1 | 99
Cc1ccc(S(=O)(=O)N(C)CC(=O)N2CCCc3ccccc32)cc1 | 97
O=C(NCc1cccs1)C12CC3CC(CC(C3)C1)C2 | 96
Cc1nc2onc(OCC(=O)OCc3ccccc3)c2c(C)c1C | 95
O=CNCCc1nc2ccccc2n1Cc1ccccc1 | 94
O=C(OCCN1C(=O)c2ccccc2C1=O)c1cc2ccccc2o1 | 95
Cc1ccc(C(=O)ONc2ccc(N=O)cc2)cc1 | 89
COc1ccc2c(c1C)OC(C)(C)CC2=O | 94
CCCCC(C)(O)C/C=C/[C@H]1[C@H](O)CC(=O)[C@@H]1CCCCCCC(=O)OC (some centres not stated) | 97

Four of the compounds above, as labelled records:
O=C(NCc1cccs1)C12CC3CC(CC(C3)C1)C2
  RVFV N-RNA FP = 96

COc1ccc2c(c1C)OC(C)(C)CC2=O
  RVFV N-RNA FP = 94

CN1C(=O)c2ccc(N3CCCC3)cc2C1=O
  RVFV N-RNA FP = 105

COc1ccc(CCNC(=O)NC(C)(C)C)cc1OC
  RVFV N-RNA FP = 90
